NOMO-1 viab: NOMO-1 AML cell viability reduction, primary screen, STK33 inhibitor project, CellTiter-Glo luminescence; 7.5% of 37,000 active; NOMO-1 AML viability, 72 h; inhibition, % (concentration not given with the values);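 active = most replicates above 80%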;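 also: wells of about 30 µL received 25 nL stock; 0% = median of vehicle wells and 100% = reference inhibitor level; the first replicate is given; inactives centre near 10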
The depositor's hits bear a star. This is a subset; the hit share may differ from the screen's.

SMILES | NOMO-1 viab
O=C(Nc1sc2c(c1C(=O)NCc1ccco1)CCCC2)c1ccc(Br)cc1 | 28.2
CS(=O)(=O)N(CC(=O)Nc1ccccc1C(=O)O)c1cccc(Cl)c1 | 4.1
Cc1noc(C)c1NC(=O)N(C)C[C@@H]1Oc2ccc(NC(=O)C3CCCCC3)cc2CC(=O)N([C@@H](C)CO)C[C@@H]1C | 6.2
COc1ccc(CN(C)C[C@H]2Oc3ccc(NC(=O)CCC(F)(F)F)cc3C(=O)N([C@@H](C)CO)C[C@H]2C)cc1 | 3.0
C[C@@H]1CN([C@@H](C)CO)C(=O)c2cccc(NC(=O)c3cnccn3)c2O[C@@H]1CN(C)CC1CC1 | 22.5
C[C@H](CO)N1C[C@H](C)[C@H](CN(C)C(=O)NC2CCCCC2)Oc2ccc(NC(=O)C3CCCCC3)cc2C1=O | 2.6
COC(=O)C1(Cc2ccc(O)cc2)OC(=O)C(=O)C1c1ccc(O)cc1 (configuration not stated) | 12.4
COC(=O)c1ccccc1NC(=O)C1CC(c2ccc(Cl)c(Cl)c2)=NO1 (configuration not stated) | -4.3
COC(=O)c1ccc(-n2c(CCC(=O)O)ccc2-c2ccc(Cl)cc2)cc1 | 17.4
CCOC(=O)c1sc(/S(C)=N/C(=O)Nc2ccccc2Cl)c2c1CCC=C2 (configuration not stated) | 41.1
COc1ccc(NC(=O)Nc2ccc3c(c2)C(=O)N([C@H](C)CO)C[C@@H](C)[C@H](CN(C)C(=O)Nc2ccc(C(F)(F)F)cc2)O3)cc1 | 23.9
COc1ccc(N(CC(=O)Nc2ccc(I)cc2)S(C)(=O)=O)cc1Cl | 10.2
C[C@@H]1CN([C@@H](C)CO)C(=O)c2cc(NS(=O)(=O)c3ccccc3)ccc2O[C@H]1CN(C)C(=O)Nc1ccc2c(c1)OCO2 | -9.0
C[C@H](CO)N1C[C@H](C)[C@@H](CN(C)C(=O)Nc2cccc3ccccc23)Oc2ccc(NC(=O)Nc3cccc4ccccc34)cc2C1=O | 29.8
O=C(Nc1ccccc1C(=O)N1CCOCC1)C1CCCO1 (configuration not stated) | -8.7
C=C[C@@](C)(O)CCC1C(=C)CCC2[C@@](C)(CO)CCC[C@]12C (some centres not stated) | 37.1
C[C@H]1CN([C@@H](C)CO)C(=O)Cc2cc(NC(=O)c3ccncc3)ccc2O[C@H]1CN(C)Cc1ccncc1 | -0.7
CNC[C@H]1Oc2c(NC(=O)Nc3ccc(C(F)(F)F)cc3)cccc2C(=O)N([C@@H](C)CO)C[C@H]1C | 18.2
C[C@@H]1CN([C@@H](C)CO)C(=O)c2cc(NC(=O)c3ccncc3)ccc2O[C@@H]1CN(C)Cc1ccc(Oc2ccccc2)cc1 | 63.2
CC(C)NC(=O)Nc1ccc2c(c1)C(=O)N([C@@H](C)CO)C[C@@H](C)[C@@H](CN(C)Cc1ccccc1)O2 | 11.8
Cn1c(SCC(=O)Nc2cccc(F)c2)nnc1-c1ccc(Cl)cc1 | 7.3
C[C@H](CO)N1C[C@H](C)[C@@H](CN(C)C(=O)Nc2ccc(F)cc2)Oc2c(NS(C)(=O)=O)cccc2C1=O | 7.7
CC1(C)CC(=O)C2=C(C1)N(Cc1ccc(F)cc1)C(=O)C2(NC(=O)c1cccnc1)C(F)(F)F (configuration not stated) | -13.1
COc1ccc(S(=O)(=O)N(C)C[C@@H]2Oc3c(NS(=O)(=O)c4c(C)noc4C)cccc3C(=O)N([C@@H](C)CO)C[C@@H]2C)cc1 | 11.7
C[C@@H]1CN([C@H](C)CO)C(=O)Cc2cc(NC(=O)C3CCCCC3)ccc2O[C@@H]1CN(C)S(C)(=O)=O | 6.6
O=C(O)c1ccccc1-c1ccccc1C(=O)NCCCO | -16.2
COc1ccc(S(=O)(=O)N(C)C[C@H]2Oc3c(NS(=O)(=O)c4ccc(Cl)cc4)cccc3C(=O)N([C@H](C)CO)C[C@@H]2C)cc1 | -4.8
CS(=O)(=O)N(CC(=O)Nc1ccc(F)c(F)c1)c1ccccc1Br | -3.3
Cc1ccc(S(=O)(=O)NC(C)C(=O)Nc2c(F)cccc2F)cc1 (configuration not stated) | -1.7
CC(C)(C)[C@H]1COC(CC2=N[C@@H](C(C)(C)C)CO2)=N1 | 5.6
C=C1C[C@@]23C[C@H]4C5[C@@]6(C)CC(=O)C[C@]57C(C2C(O)[C@H]1C(O)C37)N4C6 (some centres not stated) | 8.7
C[C@@H]1CN([C@H](C)CO)C(=O)c2cccc(NC(=O)C3CC3)c2O[C@@H]1CN(C)C(=O)Nc1ccc(F)cc1 | -6.4
O=C(O)C1CC(O)CN1S(=O)(=O)c1ccc(Cl)cc1 (configuration not stated) | 22.3
CCn1c(SCC(=O)Nc2ccccc2Br)nnc1-c1ccccc1 | 16.9
OC[C@H]1O[C@@H](Oc2ccc3c(c2)OC[C@H]2c4cc5c(cc4O[C@@H]32)OCO5)[C@H](O)[C@@H](O)[C@@H]1O | 12.8
C[C@@H]1CN([C@H](C)CO)C(=O)Cc2cc(NC(=O)Nc3ccc4c(c3)OCO4)ccc2O[C@@H]1CN(C)Cc1ccncc1 | 12.1
COc1ccc(NC(=O)N(C)C[C@H]2Oc3c(NS(=O)(=O)c4ccc(Cl)cc4)cccc3C(=O)N([C@H](C)CO)C[C@H]2C)cc1 | 21.5
Cc1ccc(S(=O)(=O)N(C)CC(=O)Nc2cccc3c2CCCC3)cc1 | 17.4
Cc1cc(=O)[nH]c(SCCOc2ccc3c(c2)CCC3)n1 | 22.1
COc1ccc(NC(=O)Nc2ccc3c(c2)CC(=O)N([C@@H](C)CO)C[C@H](C)[C@@H](CN(C)C(=O)NC2CCCCC2)O3)cc1 | -9.9

Rewritten as tab-separated lines: entries from further up.
Compound	NOMO-1 viab
COC(=O)c1ccc(-n2c(CCC(=O)O)ccc2-c2ccc(Cl)cc2)cc1	17.4
CCOC(=O)c1sc(/S(C)=N/C(=O)Nc2ccccc2Cl)c2c1CCC=C2 (configuration not stated)	41.1
COc1ccc(NC(=O)Nc2ccc3c(c2)C(=O)N([C@H](C)CO)C[C@@H](C)[C@H](CN(C)C(=O)Nc2ccc(C(F)(F)F)cc2)O3)cc1	23.9
COc1ccc(N(CC(=O)Nc2ccc(I)cc2)S(C)(=O)=O)cc1Cl	10.2
C[C@@H]1CN([C@@H](C)CO)C(=O)c2cc(NS(=O)(=O)c3ccccc3)ccc2O[C@H]1CN(C)C(=O)Nc1ccc2c(c1)OCO2	-9.0
C[C@H](CO)N1C[C@H](C)[C@@H](CN(C)C(=O)Nc2cccc3ccccc23)Oc2ccc(NC(=O)Nc3cccc4ccccc34)cc2C1=O	29.8
O=C(Nc1ccccc1C(=O)N1CCOCC1)C1CCCO1 (configuration not stated)	-8.7
C=C[C@@](C)(O)CCC1C(=C)CCC2[C@@](C)(CO)CCC[C@]12C (some centres not stated)	37.1
C[C@H]1CN([C@@H](C)CO)C(=O)Cc2cc(NC(=O)c3ccncc3)ccc2O[C@H]1CN(C)Cc1ccncc1	-0.7
CNC[C@H]1Oc2c(NC(=O)Nc3ccc(C(F)(F)F)cc3)cccc2C(=O)N([C@@H](C)CO)C[C@H]1C	18.2
C[C@@H]1CN([C@@H](C)CO)C(=O)c2cc(NC(=O)c3ccncc3)ccc2O[C@@H]1CN(C)Cc1ccc(Oc2ccccc2)cc1	63.2

Later entries
SMILES | NOMO-1 viab
COc1ccc(NC(=O)Nc2ccc3c(c2)C(=O)N([C@@H](C)CO)C[C@H](C)[C@H](CN(C)C(=O)Nc2cccc4ccccc24)O3)cc1 | 10.5
C[C@H](CO)N1C[C@H](C)[C@H](CN(C)C(=O)Nc2cccc3ccccc23)Oc2c(NS(=O)(=O)c3cccs3)cccc2C1=O | 22.8
C[C@H]1CN([C@@H](C)CO)C(=O)c2cc(NC(=O)CCN3CCOCC3)ccc2O[C@H]1CN(C)Cc1ccccc1 | 18.3
CCCn1nnc(NC(=O)C(C)Oc2ccc(Cl)cc2Cl)n1 (configuration not stated) | 30.6
Cc1ccc(S(=O)(=O)Nc2cccc3c2O[C@@H](CN(C)S(=O)(=O)c2ccccc2)[C@@H](C)CN([C@H](C)CO)C3=O)cc1 | 20.0
C[C@H]1CN([C@@H](C)CO)C(=O)c2cc(NC(=O)CCC(F)(F)F)ccc2O[C@H]1CN(C)S(C)(=O)=O | -11.8
C[C@@H]1CN([C@@H](C)CO)C(=O)Cc2cc(NS(C)(=O)=O)ccc2O[C@@H]1CN(C)Cc1ccccc1 | -3.3
COc1ccc(Nc2nc(N)nc(CSc3nc(C)cc(C)n3)n2)cc1 | 64.4
Cc1noc(C)c1NC(=O)Nc1ccc2c(c1)C(=O)N([C@H](C)CO)C[C@H](C)[C@@H](CN(C)C(=O)NC1CCCCC1)OCCCC[C@@H](C)O2 | 5.5
Cc1cccc(OC(=O)C(Cc2ccccc2)N2C(=O)C3C4CCC(C4)C3C2=O)c1C (configuration not stated) | 37.4
O=C1Nc2ccc(S(=O)(=O)NCC3CCCO3)c3cccc1c23 (configuration not stated) | 22.7
C[C@@H]1CCCCO[C@@H](CN(C)Cc2ccc(C(F)(F)F)cc2)[C@@H](C)CN([C@H](C)CO)C(=O)c2cc(NC(=O)Cc3ccccc3)ccc2O1 | 106.4*
Cc1ccc(S(=O)(=O)Nc2ccc3c(c2)CC(=O)N([C@@H](C)CO)C[C@H](C)[C@H](CN(C)S(=O)(=O)c2ccc(C)cc2)O3)cc1 | 41.6
CC(=O)C(Sc1cc(C)nc(N)n1)C(=O)Nc1ccccc1 (configuration not stated) | 15.7
COc1cccc2cc(-c3nnc(SCC(=O)Nc4ccc5ccccc5c4)n3C)oc12 | 17.2
CCC(Sc1nnc(-c2ccncc2)n1C)C(=O)Nc1c(C)cccc1C (configuration not stated) | 1.6
Cc1noc(C)c1S(=O)(=O)Nc1ccc2c(c1)CC(=O)N([C@@H](C)CO)C[C@H](C)[C@H](CN(C)C(=O)Nc1ccc3c(c1)OCO3)O2 | 6.4
Cn1c(/C(C#N)=C(/O)c2ccc(F)cc2)nc2ccccc21 | 29.0
C[C@H](CO)N1C[C@H](C)[C@H](CN(C)S(=O)(=O)c2ccc(F)cc2)Oc2ccc(NC(=O)Nc3ccccc3)cc2C1=O | 8.7
C[C@H]1CN([C@@H](C)CO)C(=O)Cc2cc(NS(C)(=O)=O)ccc2O[C@@H]1CN(C)S(C)(=O)=O | 5.9
O=C(NCc1ccc2c(c1)OCO2)c1ccc2c(=O)n(Cc3ccccc3)c(=S)[nH]c2c1 | 22.1
CC(C)C(=O)Nc1ccc(C(=O)NCc2ccco2)cc1 | 7.6
C[C@H](CO)N1C[C@H](C)[C@H](CN(C)C(=O)Nc2ccc(F)cc2)Oc2ccc(NC(=O)Cc3cn(C)c4ccccc34)cc2C1=O | 26.9
C[C@@H]1CN([C@H](C)CO)C(=O)Cc2cc(NC(=O)Cc3cn(C)c4ccccc34)ccc2O[C@H]1CN(C)S(=O)(=O)c1ccccc1 | 4.8
COc1ccc(OCC(=O)Nc2ccc(-c3nc4cc(C)ccc4o3)cc2)cc1 | 23.9
Cc1cccc(-c2noc(CN(C)S(=O)(=O)c3cc(Cl)ccc3Cl)n2)c1 | 19.2
C[C@H](CO)N1C[C@H](C)[C@@H](CN(C)S(=O)(=O)c2cn(C)cn2)Oc2c(NC(=O)NC3CCCCC3)cccc2C1=O | -10.7
C[C@@H]1CN([C@@H](C)CO)C(=O)c2cc(NC(=O)Nc3cccc4ccccc34)ccc2O[C@H]1CN(C)Cc1ccncc1 | -26.0
O=C(CSc1ncccn1)Nc1ccc(I)cc1 | 1.6
CNC[C@H]1Oc2ccc(N(C)C)cc2CC(=O)N([C@@H](C)CO)C[C@H]1C | -4.1
NC(=O)c1c(NC(=O)CCSc2nc(-c3ccco3)cc(C(F)(F)F)n2)sc2c1CCC2 | 22.6
CC1CCC2(C(=O)OC3OC(CO)C(O)C(O)C3O)CCC3(C(=O)O)C(=CCC4C5(C)CCC(O)C(C)(C)C5CCC43C)C2C1C (configuration not stated) | 9.5
C[C@@H]1CN([C@H](C)CO)C(=O)c2cc(NS(=O)(=O)c3cn(C)cn3)ccc2O[C@@H]1CN(C)Cc1ccc(C(F)(F)F)cc1 | 28.3
Cc1ccc(S(=O)(=O)Nc2ccc3c(c2)C(=O)N([C@@H](C)CO)C[C@@H](C)[C@H](CN(C)C(=O)Nc2cccc4ccccc24)O3)cc1 | 36.2
C[C@@H]1CN([C@H](C)CO)C(=O)Cc2cc(NS(=O)(=O)c3ccc(Cl)cc3)ccc2O[C@H]1CN(C)Cc1ccncc1 | 32.5
O=C(Nc1scc(-c2ccccc2)c1C(=O)NCc1ccco1)c1ccccc1 | 18.3
C[C@H]1CN([C@@H](C)CO)C(=O)c2cc(NC(=O)Nc3ccc(F)cc3)ccc2O[C@H]1CN(C)C(=O)Nc1ccccc1 | 12.1
c1ccc2c(c1)n(CCN1CCOCC1)c1nc(C34CC5CC(CC(C5)C3)C4)cn21 | 49.8
Cc1noc(C)c1S(=O)(=O)Nc1ccc2c(c1)C(=O)N([C@H](C)CO)C[C@H](C)[C@H](CN(C)S(=O)(=O)c1cn(C)cn1)O2 | -9.7
CCOc1ccccc1C(=O)Nc1ccc(S(=O)(=O)Nc2ccccn2)cc1 | -26.4
Cc1noc(C)c1S(=O)(=O)Nc1ccc2c(c1)C(=O)N([C@H](C)CO)C[C@H](C)[C@H](CN(C)Cc1ccc(C(F)(F)F)cc1)O2 | 16.9
COc1ccc(NC(=O)Nc2ccc3c(c2)C(=O)N([C@@H](C)CO)C[C@H](C)[C@@H](CN(C)C(=O)Nc2ccc(OC)cc2)O3)cc1 | -31.9
Cc1noc(C)c1S(=O)(=O)N(C)C[C@H]1Oc2ccc(NS(=O)(=O)c3ccc(Cl)cc3)cc2C(=O)N([C@@H](C)CO)C[C@H]1C | -6.0
COc1ccccc1NC(=O)C1=C(C)Nc2nc(-c3ccccc3)nn2C1c1ccccn1 (configuration not stated) | -13.2
Cc1cc(C(F)(F)F)nc(SCc2ccc(C(=O)O)o2)n1 | 15.2

Source: PubChem BioAssay
